# Compound activity deposited in PubChem by National Center for Advancing Translational Sciences (NCATS).
# Menin-MLL FL inh = displaces fluorescein MLL peptide from human menin; AID 1766; FP activity change, % at 61.4 µM; 290,000 tested, under 10 active; Fluorescence polarization, fluorescein-MLL peptide displacement from menin; inconclusive = falling polarisation curve, or a change in total fluorescence; inactive = total fluorescence flat and polarisation flat or rising; no compound was filed as active; the % refers to the polarisation; negative = inhibition;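 further: % of control where 0% means no effect; inhibitors lower the polarisation; unlabelled MLL peptide was the positive control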
# ClpP mod = qHTS Assay for Activators of ClpP. ATP-dependent Clp protease proteolytic subunit (Bacillus subtilis (strain 168)), P80244. purified B. subtilis ClpP, FRET peptide cleavage, 20 min. AID 651965, 2013. 340,000 tested, 1.9% active. Potency, µM (highest dose often 57.5 µM), for the others: at the top dose activity change, negative = active; active = well fitted falling curve with a large enough effect; inconclusive = small, poorly fitted or top-dose-only effect; inactive = no such curve, though single readings can be large or run the other way; further: potency means the concentration at half of the fitted maximal effect; the source files actives as falling curves though it sought activators and does not explain the sign; nearly all actives have a fitted effect of over 65% in size; many hits overshoot -100%
# Target sequence (P80244 whole entry, looked up): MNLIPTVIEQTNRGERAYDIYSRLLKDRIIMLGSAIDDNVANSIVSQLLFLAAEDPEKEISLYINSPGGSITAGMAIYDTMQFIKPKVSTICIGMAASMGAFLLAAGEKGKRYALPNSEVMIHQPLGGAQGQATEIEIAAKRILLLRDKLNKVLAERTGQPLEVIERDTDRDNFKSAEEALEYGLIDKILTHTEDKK
#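 FRET quenching reversal measured ClpP activation: 10 microg/mL B. subtilis ClpP at pH 8 with the FRET-FV decapeptide, read at 430 nm after 320 nm excitation. The 20-min minus 0-min signal was scaled between DMSO/no-enzyme wells and ADEP (5.8 microM final).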
# gsp ag = activates gsp, the McCune-Albright syndrome mutation; Potency, µM (titrated, usually from 76.9 µM), without a hit: top-dose activation (cAMP increase), usual class: activators; 340,000 tested, 0.13% active; gsp mutant cells, cAMP HTRF, 30 min; control for the full effect not named in the record; AID 624287; active = well fitted activation curve with a large enough effect; inconclusive = small, poorly fitted or top-dose-only effect, or another doubt; inactive = no such curve, though single readings can be large or run the other way; cell line not stated here;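 further: phosphodiesterase inhibitor Ro 20-1724 added with compounds to block cAMP breakdown; potency means the concentration at half of the fitted maximal effect; nearly all actives have a fitted effect of over 60% in size; about a fifth of the inactives were tested at one dose only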
#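 Cells in DMEM/10% FBS with G418 were pretreated with compounds in DMSO plus […] (300 uM stock) for 30 min at 37C. cAMP was measured by HTRF (cAMP-d2 plus anti-cAMP antibody-K) after 30 min at room temperature.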
# D2 agonist = agonists of human D2 dopamine receptor (beta-arrestin); P14416; DiscoveRx PathHunter D2 beta-arrestin, luminescence, 90 min; 100% = 57 uM dopamine signal; activation, % (no concentration beside the values); 360,000 tested, 0.084% active; in the data active = activation above about 40%; inconclusive = about 15% to 40%; inactive = below about 15%; further: compound concentration not given in the record; the text of the record calls up to 30% inactive
# Target sequence (P14416 whole entry, looked up): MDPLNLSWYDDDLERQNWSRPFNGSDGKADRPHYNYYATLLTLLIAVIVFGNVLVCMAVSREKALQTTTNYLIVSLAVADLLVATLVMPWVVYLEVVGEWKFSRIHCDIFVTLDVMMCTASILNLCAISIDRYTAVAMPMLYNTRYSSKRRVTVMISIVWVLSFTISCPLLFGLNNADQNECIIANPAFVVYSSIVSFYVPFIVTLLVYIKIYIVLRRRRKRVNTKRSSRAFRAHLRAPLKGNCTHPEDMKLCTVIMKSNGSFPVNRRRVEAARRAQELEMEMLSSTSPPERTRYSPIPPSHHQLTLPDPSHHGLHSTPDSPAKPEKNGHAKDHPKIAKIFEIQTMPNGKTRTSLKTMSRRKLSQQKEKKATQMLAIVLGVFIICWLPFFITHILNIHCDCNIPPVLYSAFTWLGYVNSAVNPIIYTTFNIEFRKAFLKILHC
#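 DiscoveRx PathHunter D2 beta-arrestin cells (2,100/well) attached overnight, then compound-stimulated 90 min at 37 C in HBSS/10 mM HEPES/0.1% Tween-20 buffer; beta-galactosidase complementation read by luminescence after 1 h at ambient temperature. Dopamine 57 uM final (EC100) as control.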
# PINK1 modulator = modulators of PINK1 expression; Potency, µM (doses to about 76.6 µM), for the others: at the top dose activation (PINK1 increase), actives largely listed as activators; PINK1 immunofluorescence, high-content cytometry, 24 h; 410,000 tested, 0.2% active; AID 624263; active = well fitted activation curve with a large enough effect; inconclusive = small, poorly fitted or top-dose-only effect; inactive = flat fitted curve, though single readings scatter; cell line not stated here;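 further: potency means the concentration at half of the fitted maximal effect; % of control where 0% means no effect; nearly all actives have a fitted effect of over 65% in size; a mitochondrial uncoupler was the plate control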
#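 PINK1 protein, normally rapidly degraded, was detected by immunofluorescence after 24 hour compound treatment of a stable cell line. Titration data (5 concentrations) came from laser-scanning cytometry, with CCCP-treated wells as controls.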
# gsp antag = gsp mutant antagonism; 340,000 tested, 0.4% active; gsp-mutant cells, cAMP HTRF, 30 min; control for the full effect not named in the record; Potency, µM (highest dose often 76.9 µM), for inactives: at the highest dose activity change, negative = inhibition, usual class: inhibitors; active = falling curve of any shape with a large fitted effect; inconclusive = falling curve, mostly with a smaller effect; inactive = flat or rising curve; cell line not stated here;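 further: intracellular cAMP measured with PDE inhibitor Ro 20-1724 present during compound exposure; potency means the concentration at half of the fitted maximal effect; on the % scale 0 is the no-effect control and ±100 the full control effect; nearly all actives have a fitted effect of over 65% in size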
#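 Measurement of cellular cAMP by homogeneous time-resolved fluorescence following a 30 min compound exposure at 37C. The PDE inhibitor […] was present throughout; the assay buffer was DPBS with 0.05% BSA and 0.005% Tween 20.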
# Sfp PPTase inh = Sfp phosphopantetheinyl transferase inhibition; Q9F4F7; Biochemical Sfp PPTase activity, qHTS; Potency, µM, for inactives: max response, negative = inhibition, most hits filed as inhibitors; 310,000 tested, 3.5% active; AID 1490; active means well fitted inhibition curve with a large enough effect; inconclusive means small, poorly fitted or top-dose-only effect, or another doubt; inactive means no such curve, though single readings can be large or run the other way;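 further: the enzyme is Sfp with the accession as filed and its product quenches rhodamine fluorescence; potency means the concentration at half of the fitted maximal effect; 0% = enzyme reaction without inhibitor and -100% = no enzyme wells; top concentration of the series not given in the record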
#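 Fluorescence-quenching assay with 15 nM Sfp, 5 uM rhodamine-CoA and 12.5 uM BHQ-2-labelled ybbR peptide in pH 7.6 Hepes/MgCl2 buffer. Enzyme was pre-incubated with compound for 15 min at room temperature. Rate was taken from the 30-min fluorescence change (525/598 nm).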
# Active calls of the source: *; ? = inconclusive; nt = no result given; & = joins results of further samples; [ ] = remark or other dose.
SMILES,Menin-MLL FL inh,ClpP mod,gsp ag,D2 agonist,PINK1 modulator,gsp antag,Sfp PPTase inh
Cc1ccc2nc(CSc3nnc(Cc4cccs4)n3C3CCCCC3)cc(=O)n2c1,1.4,?,0%,-2.0,-2.7%,12%,-2%
CCOC(=O)C1CCCN(C(=O)c2cc(-c3ccc(C)cc3)nc3ccccc23)C1 (configuration not stated),-5.7,-12%,1%[15.4 µM],-1.0,0.4%,?,-13%
Nc1nc(NCc2ccco2)nc(N2CCCCCC2)c1[N+](=O)[O-],7.9,7.1%,-10%[15.4 µM],-1.5,1.9%,-7%,-22%
Cc1ccc(S(=O)(=O)Cn2nnnc2C(CC(C)C)N2CCN(c3ccc(F)cc3)CC2)cc1 (configuration not stated),7.5,-2.3%,0%,-2.5,4.4%,-5%,10%
OCc1nc2ccccc2n1CCOc1ccccc1,nt,0.0%,-22%,-2.3,1.9%,5%,nt
Cc1ccc(Cl)cc1NC(=S)N1CCC(c2ccccc2)C1 (configuration not stated),10.0,nt,-3%[15.4 µM],-4.9,1.9%,-16%,-2%
O=C(c1ccc(Cl)c(F)c1F)N1CCCC1,1.6,-1.2%,9%,0.7,0.3%,10%,7%
Cc1ccc(S(=O)(=O)N2CCCCC2)cc1NC(=O)CSc1nnc(C2CC2)n1C,nt,-0.5%,-14%[15.4 µM],-2.0,2.5%,5%,nt
Nc1nc(COC(=O)C2CCN(C(=O)c3ccc(Cl)cc3)CC2)nc(Nc2ccccc2)n1,nt,-1.5%,-3%,-1.2,1.1%,-12%,nt
CCc1nnc(NC(=O)CSc2ccc(-c3ccc(-n4cccn4)cc3)nn2)s1,nt,-2.4%,0%,4.9,12%,0%,nt
CC(C(=O)Nc1ncc2c(n1)CC(C)(C)CC2=O)N1C(=O)c2ccccc2C1=O (configuration not stated),5.0,28µM*,-34%[inhibitor],-1.4,1.0%,2%,12%
CC1=C(C(=O)OCc2ccccc2)C(c2ccc(Cl)cc2)NC(=O)N1CCCCCC(=O)O (configuration not stated),2.4&-4.8,-2.2%,nt,-0.9,-0.1%,-20%,2%&19%

# An excerpt from further up, for reference:
SMILES,Menin-MLL FL inh,ClpP mod,gsp ag,D2 agonist,PINK1 modulator,gsp antag,Sfp PPTase inh
Cc1ccc2nc(CSc3nnc(Cc4cccs4)n3C3CCCCC3)cc(=O)n2c1,1.4,?,0%,-2.0,-2.7%,12%,-2%
CCOC(=O)C1CCCN(C(=O)c2cc(-c3ccc(C)cc3)nc3ccccc23)C1 (configuration not stated),-5.7,-12%,1%[15.4 µM],-1.0,0.4%,?,-13%

# Later entries.
SMILES,Menin-MLL FL inh,ClpP mod,gsp ag,D2 agonist,PINK1 modulator,gsp antag,Sfp PPTase inh
CC(=O)c1cccc(NC(=O)c2nccnc2C(=O)O)c1,-1.4,-0.4%,-4%,-0.9,1.3%[38.3 µM],16%,-20%
COc1ccc2nc(NC(=O)c3c(C)noc3C)sc2c1,nt,-2.8%,19%,-1.4,-0.6%,-9%,nt
N=c1c2c3c(sc2nc2n1CCCCC2)CCCC3,1.3,-1.1%,27%,-1.4,-0.4%,5%,-8%
CCOc1cc(/C=C2\C(=O)NN(c3ccccc3)C2=O)cc([N+](=O)[O-])c1O,-6.5,nt,-7%[15.4 µM],-3.6,1.5%,?,0%
CCn1c2ccccc2c2cc(NS(=O)(=O)c3ccccc3C)ccc21,7.5,0.8%,7%,-3.6,3.9%,-13%,18%
CC1CC(C)(C)CC2(C1)NC(=O)N(CC(=O)OCC(=O)Nc1cc(S(=O)(=O)N3CCCCC3)ccc1Cl)C2=O (configuration not stated),nt,-0.7%,-38%[inhibitor],-0.3,-1.6%,-7%,nt
CCCNC(=S)N1CCN(C(c2ccccc2)c2ccccc2)CC1,3.5,0.9%,-3%,-0.8,1.9%,-3%,-9%
C=CCOc1ccc(/C=C2\C(=N)N3N=C(S(=O)(=O)CC)SC3=NC2=O)cc1OC,8.1,nt,6%[15.4 µM],0.7,0.1%,-14%,19%
CN1CCC(=NNC(=O)C(=O)NC2CCCCC2)CC1,-5.1,0.9%,3%,-0.9,17%[38.3 µM],6%,-4%
Cc1nc(/N=C(\N)NC(=O)c2ccccc2)nc2ccccc12,-0.2,41%,-2%,-0.1,7.3%[38.3 µM],8%,-7%
O=C(N[C@H]1CCC(=O)N([C@H](CSc2ccc(Br)cc2)Cc2ccccc2)CC1)OCc1ccccc1,nt,-2.4%&0.5%,-10%,-1.2,0.0%,3%,nt
Cc1nn(-c2cc(N3CCNCC3)ccc2[N+](=O)[O-])c(=O)c2ccccc12,1.9,-0.2%,19%,-1.7,0.7%,4%,2%
O=C1C(O)CCN1Cc1ccccc1 (configuration not stated),nt,nt,-46%[inhibitor],-2.7,6.8%,2%,nt
CCOc1cccc(-c2nnc(SCC(=O)Nc3cc(C)ccc3OC)n2N)c1,-2.2,-1.1%,1%,-2.5,-0.7%,-15%,3%
CCOC(=O)c1cnc(SC2CC(=O)N(c3ccccc3)C2=O)nc1N (configuration not stated),4.9,-2.4%,28%,-2.5,0.6%,4%,6%
COc1ccc(/C=C2/SC(=O)N(NS(=O)(=O)c3ccccc3)C2=S)cc1OC,18,0.4%,-83%[inhibitor],-1.2,-5.8%[38.3 µM],1%,-21%
COc1ccc(C(=O)c2ccc(Cl)cc2Cl)cc1,2.8,-1.2%,-1%,1.3,5.8%,-5%,6%
Cc1c(Cl)cccc1NC(=S)N(CCCN1CCOCC1)Cc1ccco1,-1.6,nt,-8%,-4.9,0.9%,-1%,22%
O=C(CCNS(=O)(=O)c1cccc2nsnc12)NCCC1=CCCCC1,0.2,-3.7%,-9%,-1.5,-1.5%,-3%,18%
CCCNc1nc2c(c(=O)n(C)c(=O)n2C)n1CCc1ccccc1,3.7,-1.1%,28%,0.8,2.6%[38.3 µM],?,4%
CCCc1c(C(=O)N/N=C/c2sccc2C)nnn1-c1nonc1N,3.1,-2.6%,?,4.9,11%,10%,19%
CC(=NCCc1c(C)[nH]c2ccc(OC(F)(F)F)cc12)C1=C(O)CC(c2ccccc2)CC1=O (configuration not stated),-2.5,nt,17%[15.4 µM],11,7.7%,-38%,?
CC(O)c1ccc(OCCN(C)c2ccccn2)cc1 (configuration not stated),0.3,-0.1%,0%[15.4 µM],0.5,2.3%,9%,0%
O=C(NCc1ccco1)c1ccc2c(c1)C(=O)N(Cc1ccccc1)C2=O,4.4,28µM*,-18%,1.3,-0.1%,-6%,?
CC(=O)Nc1ccc2nc(C)n(Cc3ccc(Cl)cc3)c(=O)c2c1,-2.2,-8.3%,-12%,-1.8,-1.5%,8%,-13%
Cc1ccc(/C=N/NC(=O)CSc2nc3ccccc3n2Cc2ccccc2)o1,0.7,-0.7%,-2%,-0.2,1.1%,-25%,-7%
COc1ccccc1CCNC(=O)CCCn1nc(C)c2c(C)n(-c3ccc(C)cc3)nc2c1=O,-1.2,-1.5%,-13%,-1.0,1.1%,?,0%
Cc1nc(C(F)(F)F)c(C(=O)NC(=O)Nc2ccccc2)s1,4.3,-1.2%,-49%[inhibitor],-0.5,0.3%,-6%,-1%
O=C(COC(=O)CCC(=O)c1cccs1)NC1CCCCC1,nt,-0.7%,-22%,3.1,-1.0%,15%,nt
COCC(=O)Nc1ncc(S(=O)(=O)c2ccc([N+](=O)[O-])cc2)s1,-0.9,-1.1%,6%[15.4 µM],?,-0.1%,0%,8%
O=C(Nc1ccc(N2CCOCC2)c(S(=O)(=O)Nc2ccc(Cl)cc2)c1)c1cnccn1,-0.2,-1.8%,-18%,-5.5,2.0%,-15%,5.6µM*
COc1ccc(C2CC(c3ccc(F)cc3)Nc3nc(N)nn32)cc1 (configuration not stated),-0.5,-1.0%,-1%,-4.2,1.4%,-5%,-3%
CC/C(=N\NC(=O)OC)c1ccc(OC(F)F)cc1,1.1,-3.0%,?,-3.2,1.7%,6%,17%
CCc1nnc(NC(=O)CN2CCN(c3nc(-c4ccccc4)cs3)CC2)s1,2.3,-1.0%,-42%,2.7,1.1%[38.3 µM],?,2%
O=C1C2CC=CCC2C(=O)N1c1ccc(OCC(O)Cn2nnc3ccccc32)cc1 (configuration not stated),-2.4,-1.1%,13%,2.4,-1.4%,-22%,17%
CN1CCN(C(=S)NC(=O)c2cccc([N+](=O)[O-])c2)CC1,-7.7,-1.3%,5%,-2.4,-0.6%,13%,32µM*
CCN(c1ccccc1)S(=O)(=O)c1ccc(OC)c(OC)c1,5.7,-1.9%,4%,0.9,-1.3%[38.3 µM],4%,18%
COc1ccc(-n2c(SCC(=O)N3CCOCC3)nnc2C(C)N2CCCCC2)cc1 (configuration not stated),2.1,-1.4%,-55%[inhibitor],-1.2,-0.1%,0%,3%
CCN(CC(=O)NCc1ccc(F)cc1)C(=O)CN1CCN(c2ccc(OC)cc2)CC1,0.9,-0.5%,-15%[15.4 µM],0.5,0.1%,-18%,?
CCc1ccc(C(=O)N/N=C/c2cccc3ccccc23)nc1,0.0,-1.7%,?,-6.0,8.2%,-7%,10%
Cc1cc(NC(=O)c2ccccc2)n(C(C)(C)C)n1,7.5,-2.5%,2%,-4.0,0.4%,-2%,10%
C[C@H](O)[C@H](O)[C@H]1CNc2nc(N)[nH]c(=O)c2N1,nt,5.1%,nt,-3.5,0.9%,-4%,nt
COc1ccc2[nH]c(=O)c(CN(CCN(C)C)C(=O)NCc3ccccc3)cc2c1,3.1,25µM*,1%,-3.0,1.5%,10%,-5%
O=C(O)CCSc1nc2ccc(Br)cc2[nH]1,-4.2,0.4%,4%,-5.3,-0.1%,9%[15.4 µM],-8%
O=c1oc2ccccc2nc1/C=C(\O)c1ccccc1,2.3,-0.7%,?,-2.9,1.0%,-3%,?
Cc1cc(C)n(-c2ccn(Cc3ccc(Cl)cc3Cl)c(=O)n2)n1,2.7,-0.6%,26%,-0.5,8.7%[38.3 µM],-12%,-14%

# No enrichment for hits (roughly 5.1% active in at least one column).
